Screening data from PubChem BioAssay.
NS1 inh: blocks influenza NS1 protein function | S. cerevisiae slowed by influenza A NS1, growth recovery by OD600 | Potency, µM (highest dose often 46.1 µM), inactives show at the highest dose activity, positive = more growth | hit rate 0.4% among 270,000; active means well fitted rising curve with a large enough effect; inconclusive means small, poorly fitted or top-dose-only effect; inactive means no such curve, though single readings can be large or run the other way; note: nearly all actives have a fitted effect of over 50% in size
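Read-out: OD600 growth recovery of NS1-expressing budding yeast. Cells grown overnight at 30C in -URA glucose medium, washed, resuspended and diluted 1:100 in 2% galactose assay medium, pH 6.0. Same strain lacking NS1 served as positive control.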
2A StopGo: lowers the luciferase signal of an FMDV 2A StopGo reporter | human cells with a luciferase reporter of 2A StopGo recoding; control for the full effect not named in the record | Potency, µM (titrated, usually from 57.9 µM), without a hit: at the top dose signal change, negative = less light | hit rate 1.2% among 410,000 | AID 1159524; active = well fitted falling curve with a large enough effect; inconclusive = small, poorly fitted or top-dose-only effect; inactive = no such curve, though single readings can be large or run the other way; tested in HEK293T cells; note: % is set by controls: 0 for no effect and ±100 for the full control effect; nearly all actives have a fitted effect of over 45% in size; luciferase light after 4 h
RE007 growth inh: less growth of the S. pombe RE007 Vpr strain; S. pombe RE007 Vpr strain, BacTiter-Glo ATP luminescence, 24 h; control for the full effect not named in the record; Potency, µM (highest dose often 92.2 µM), inactives show at the top dose activity change, negative = less growth; hit rate 0.21% among 360,000; active = well fitted falling curve with a large enough effect; inconclusive = small, poorly fitted or top-dose-only effect; inactive = no such curve, though single readings can be large or run the other way;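 note: % is set by controls: 0 for no effect and ±100 for the full control effect; nearly all actives have a fitted effect of over 50% in size; the assay follows cell death caused by Vpr and the record does not say whether a fall means rescue or toxicity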
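Fission yeast RE007 carrying one integrated HIV-1 vpr copy, seeded at OD 0.01 in PMG+AL medium with 23 nL pinned compound. Grown 24 h at 30 degrees; viability read by BacTiter-Glo luminescence after 5 min.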
Cruzain Triton: inhibitors of Trypanosoma cruzi cruzain with detergent; hit rate 0.43% among 200,000; P25779; purified cruzain, Z-FR-AMC fluorescence, 0.01% Triton; Potency, µM, for the others: max response, negative = inhibition, actives largely listed as inhibitors;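 note: plate controls were neutral wells for no effect and buffer without enzyme for full effect; nearly all actives have a fitted effect of over 40% in size; top concentration of the series not given in the record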
Target sequence (P25779 123-467 limits assumed): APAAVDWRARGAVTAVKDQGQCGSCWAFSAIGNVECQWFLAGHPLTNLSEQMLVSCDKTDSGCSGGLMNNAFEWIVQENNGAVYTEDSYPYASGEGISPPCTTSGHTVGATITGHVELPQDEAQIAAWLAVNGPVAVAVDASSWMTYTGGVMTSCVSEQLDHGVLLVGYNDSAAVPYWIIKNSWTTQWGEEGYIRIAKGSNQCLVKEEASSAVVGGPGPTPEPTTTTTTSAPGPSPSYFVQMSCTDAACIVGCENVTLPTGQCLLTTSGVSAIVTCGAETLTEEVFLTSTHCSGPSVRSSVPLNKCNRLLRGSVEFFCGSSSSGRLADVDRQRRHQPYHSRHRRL
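In this qHTS format, compounds are incubated with 1.5 nM cruzain for 15 min at room temperature before 2 uM Z-FR-AMC is added. Release of AMC is followed at 360/450 nm, and progress is taken as the 60 s fluorescence difference.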
Cruzain noTriton: inhibitors of Trypanosoma cruzi cruzain without detergent | P25779 | purified cruzain, Z-FR-AMC fluorescence, no detergent | Potency, µM, for the others: max response, negative = inhibition, actives largely listed as inhibitors | hit rate 2.3% among 200,000;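 note: plate controls were enzyme without inhibitor for no effect and buffer without enzyme for full effect; nearly all actives have a fitted effect of over 40% in size; top concentration of the series not given in the record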
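Purified cruzain at 1.5 nM, pre-incubated 15 min with compound at room temperature in 100 mM sodium acetate pH 5.5, 5 mM DTT, 0.00005% Triton X-100. Reaction started with 2 uM Z-FR-AMC; AMC fluorescence increase over 60 s gives rate.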
LASV entry inh: blocks Lassa virus binding to or entry into cells | Lassa virus pseudotype entry inhibition, cell reporter; control for the full effect not named in the record | Potency, µM (series often up to 37.9 µM), inactives show top-dose activity change, negative = inhibition, usual class: inhibitors | hit rate 1.2% among 300,000; active means well fitted inhibition curve with a large enough effect; inconclusive means small, poorly fitted or top-dose-only effect, or effect the other way; inactive means flat fitted curve, though single readings scatter; tested in HEK293 cells; note: % is set by controls: 0 for no effect and ±100 for the full control effect; nearly all actives have a fitted effect of over 50% in size; luciferase read-out
SARS PLpro yeast: SARS-CoV PLP inhibition in yeast; S. cerevisiae expressing SARS-CoV PLpro, growth rescue; control for the full effect not named in the record; hit rate 0.19% among 330,000; AID 485353; Potency, µM (highest dose often 32.9 µM), inactives show at the top dose activity, positive = growth rescue; active means well fitted rising curve with a large enough effect; inconclusive means small, poorly fitted or top-dose-only effect; inactive means no such curve, though single readings can be large or run the other way; note: 0% is about no effect; nearly all actives have a fitted effect of over 55% in size; growth read by luminescence after 48 h
Marburg entry inh: blocks Marburg virus binding to or entry into cells | Marburg virus pseudotyped entry inhibition, cell reporter; control for the full effect not named in the record; about a third of the inactives were read at about 46 µM | Potency, µM (doses to about 37.8 µM), for inactives: top-dose activity change, negative = inhibition, most hits filed as inhibitors | hit rate 1.8% among 300,000 | AID 540276; active = well fitted inhibition curve with a large enough effect; inconclusive = small, poorly fitted or top-dose-only effect, or effect the other way; inactive = flat fitted curve, though single readings scatter; tested in HEK293 cells; about a fifth of its hits are not listed in these tables; note: % is set by controls: 0 for no effect and ±100 for the full control effect; luciferase read-out
Active calls of the source: *; ? = inconclusive; . = no result given; & = joins results of further samples; [ ] = remark or other dose. Unless noted, calls come from the whole dose curve; as a rule, active = well fitted curve in the direction sought with a large enough effect; inconclusive = small, poorly fitted or top-dose-only effect, or another doubt; inactive = no such curve, though single readings can be large; an effect the other way counts as inactive or inconclusive. Potency is the fitted concentration of half-maximal effect.

Structure | Cruzain noTriton | RE007 growth inh | 2A StopGo | NS1 inh | Cruzain Triton | LASV entry inh | SARS PLpro yeast | Marburg entry inh
COc1ccc(S(=O)(=O)N(C)CC(=O)Nc2ccc(C(F)(F)F)cc2)cc1Cl | -0.6% | 5.6% | -14.8% | 2.2% | -8.3% | -15.0% | -3.2% | -0.3%
O=C(N/N=C/c1c[nH]c2ccccc12)c1cc(-c2ccc3ccccc3c2)n[nH]1 | ? | 3.6% | -22.2% | ? | -9.1% | ? | -3.1% | ?
CCn1c(SCc2ccccc2)nc2cc(OC)c(OC)cc2c1=O | . | 0.7% | -8.5% | 17.1% | . | . | -5.4% | .
O=C(NCc1cccs1)C(=O)NCC1OCCCN1S(=O)(=O)c1cc(F)ccc1F (configuration not stated) | . | 7.1% | 0.7% | 5.1% | . | -27.2% | 6.3% | -0.3%
Cc1sc2ncnc(NCc3ccco3)c2c1C | -0.3% | -7.3% | ? | -5.5% | -0.1% | -11.1% | -4.3% | -26.6%
O=c1/c(=C\c2cccn2-c2ccccc2)sc2nc3ccccc3n12 | ? | 1.0% | 7.3% | 2.4% | 3.3% | ? | 7.3% | 21.0%
Cc1ccc(OCCCC(=O)Nc2sc3c(c2C(N)=O)CCCC3)cc1 | -9.9% | . | -14.5% | . | -16.4% | -6.3%[46.1 µM] | . | .
O=C1Nc2ncccc2OC1CCCl (configuration not stated) | 6.1% | 34.2% | -15.2% | 2.9% | 4.4% | ? | 0.6% | ?
CS(=O)(=O)c1ccc(NC(=O)c2cccc(S(=O)(=O)N3CCN(Cc4ccccc4)CC3)c2)cc1 | . | -1.8% | ? | 4.0% | . | ? | 2.4% | ?
O=C(CCCn1c(=O)c2cccn2c2ccccc21)Nc1cc(C(F)(F)F)ccc1Cl | 12.4% | . | -19.8% | . | -2.9% | 27.3%[46.1 µM] | . | .
COC(=O)NC1(C(=O)O)CCCC1 | . | 4.8% | -14.3% | 5.7% | . | . | 0.0% | .
COc1ccccc1Oc1ccc(N/C=C/C(=O)c2ccco2)cc1 | . | -22.2% | -57.2% | 8.6% | . | ? | -1.6% | 19.5%[46.1 µM]
COc1ccc(N(CC(=O)NC2CCCC2)C(=O)c2ccc(N3CCCCC3)nc2)cc1 | 1.5% | 20.3% | 7.9% | -20.1% | -1.4% | -21.2% | -4.8% | 6.0%[46.1 µM]
COc1ccc(CC(=O)O/N=C(\N)Cc2ccc(OC)c(OC)c2)cc1 | -4.2% | -13.6% | 0.0% | -17.8% | -1.1% | 8.4% | -19.5% | -11.5%
Nc1cc2c(cc1Cl)-c1ccc([N+](=O)[O-])cc1C2=NO | . | 3.5% | -6.1% | . | . | 0.8% | . | ?
C=CCn1c(SCC(=O)NC(=O)NCc2ccco2)nc2sc(CC)cc2c1=O | -22.0% | 19.5% | -5.1% | 0.4% | 2.1% | -29.3% | 0.8% | ?
CC(=O)CCc1ccc(Oc2nc(-c3cccnc3)nc3ccccc23)cc1 | . | 1.5% | -21.2% | . | . | -26.1%[46.1 µM] | -0.3% | ?
COc1cccc(CN2CCNC(=O)C2CC(=O)NCCn2cccn2)c1OC (configuration not stated) | . | -1.1% | -16.7% | 1.2% | . | . | -1.4% | .
CCCNC(=O)C1CN(S(=O)(=O)c2ccccc2)CCN1S(=O)(=O)c1ccccc1 (configuration not stated) | -6.9% | -8.1% | . | -6.6% | 1.4% | -1.4% | -1.2% | 3.8%&24.2%
Nc1nc(SCC(=O)Nc2cc(Cl)ccc2Cl)n[nH]1 | . | 12.3% | -12.9% | . | . | 1.9% | -2.9% | 7.6%
Cc1cccc(N(C(=O)c2csnn2)C(C(=O)NCc2ccccc2)c2cccs2)c1 (configuration not stated) | . | -1.6% | 4.8% | -11.5% | . | -0.8%[46.1 µM] | 0.1% | 13.8%[46.1 µM]
COc1ccc(C(=O)Nc2ccc(C(=O)c3ccccc3)cc2)cc1 | . | 3.6% | ? | . | . | -25.8% | . | -17.0%[46.1 µM]
CC(C)n1c(=NC(=O)c2ccco2)c(C#N)cc2c(=O)n3ccccc3cc21 | ? | -3.8% | -7.2% | 3.0% | -12.8% | 3.1% | 7.3% | -5.9%
CCOC(=O)n1c(=O)n(Cc2ccccc2Cl)c2ccccc21 | 3.3% | -15.1% | 0.0% | -15.0% | -1.6% | -10.8% | -9.3% | -9.3%

Overlap with the part before: two entries, followed by the next part.
Structure | Cruzain noTriton | RE007 growth inh | 2A StopGo | NS1 inh | Cruzain Triton | LASV entry inh | SARS PLpro yeast | Marburg entry inh
CC(C)n1c(=NC(=O)c2ccco2)c(C#N)cc2c(=O)n3ccccc3cc21 | ? | -3.8% | -7.2% | 3.0% | -12.8% | 3.1% | 7.3% | -5.9%
CCOC(=O)n1c(=O)n(Cc2ccccc2Cl)c2ccccc21 | 3.3% | -15.1% | 0.0% | -15.0% | -1.6% | -10.8% | -9.3% | -9.3%
COc1ccc(-c2nc(CSc3nncn4c3cc3oc(C)cc34)c(C)o2)cc1 | 1.3% | . | -4.4% | . | -4.0% | -4.5%[46.1 µM] | . | .
COc1ccccc1C(O)(C(=O)NNc1cccc(C)c1)c1ccccc1OC | 6.8% | 70.9% | -10.8% | -3.6% | -1.2% | -14.4% | -8.0% | -15.1%
O=C(C1CCCO1)N1CCN(S(=O)(=O)c2cccc3nsnc23)CC1 (configuration not stated) | -1.4% | -15.8% | -8.2% | -13.8% | 3.2% | -3.6% | 1.0% | -13.1%
COc1ccc(CNC(=O)CCc2nnc3ccc(N4CCC5(CC4)OCCO5)nn23)cc1 | . | 7.2% | 30.0% | -0.6% | . | . | -0.5% | .
O=[N+]([O-])c1ccc(OCCCOc2cccc3cccnc23)cc1 | . | -11.3% | -4.7% | 9.3% | . | 1.2%[46.1 µM] | 5.5% | ?
CC(=O)c1ccccc1NC(=O)C1CC(=O)N(c2ccc3c(c2)OCCO3)C1 (configuration not stated) | . | 0.1% | -5.5% | . | . | 3.9% | 7.5% | 17.5%
Cc1cc2c(cc1S(=O)(=O)NCc1ccc(F)cc1)OCC(=O)N2 | 1.9% | . | 61.5%[activator] | . | -12.0% | 3.0%[46.1 µM] | . | .
Cc1nn(CCO)c2nc(-c3cccs3)cc(C(F)(F)F)c12 | ? | -12.8% | -21.7% | 27.4% | 0.5% | ? | -25.5% | -13.8%
CCOC(=O)C1(CC2CCCCO2)CCN(Cc2nccn2-c2ccc(OC)cc2)CC1 (configuration not stated) | . | -12.9% | -12.6% | 3.7% | . | -8.9%[46.1 µM] | 1.6% | -24.3%[46.1 µM]
CCOc1ccc(-n2c(O)c(C=NCCCn3ccnc3)c(=O)[nH]c2=O)cc1 | -3.4% | 17.9% | -12.9% | 6.6% | -1.0% | 15.9% | 16.4% | 7.2%
Cc1cc(OCC(=O)N2CCN(c3ccccc3)CC2)c2c(C)cc(=O)oc2c1 | . | -1.5% | ? | 3.9% | . | . | 12.6% | .
O=C(O)c1cc2cc(Cl)ccc2oc1=O | 8.0% | 1.3% | 17.4% | -70.6% | 2.1% | 1.5% | 8.0% | 2.4%&2.4%
O=C(COc1ccccc1/C=C1/NC(=O)NC1=O)Nc1ccccc1 | 10.2% | -14.3% | -5.1% | 17.2% | -4.7% | 0.4% | 4.1% | 11.7%
CS(=O)(=O)c1ncc(Cl)c(C(=O)Nc2ccc(N3CCOCC3)cc2)n1 | -6.9% | -15.7% | . | -14.4% | -5.7% | ? | 26.3% | ?
CC(C)NC(=O)C1c2ccccc2Oc2ccccc21 | . | -10.9% | -3.5% | 2.9% | . | -8.3% | 0.9% | 1.1%
Nc1c(C(=O)Nc2ccc(C(F)(F)F)cc2)sc2nc(-c3cccs3)ccc12 | ? | . | 30.6%[activator] | . | -8.8% | 7.4%[46.1 µM] | . | 10.9%[46.1 µM]
CC[C@]12c3[nH]c4ccc(Cl)cc4c3CCN1C(=O)[C@@H](CC(=O)NC/C=C(\C)CCC=C(C)C)C[C@@H]2C(=O)N1CCN(C(=O)c2ccco2)CC1 | . | 4.1% | ? | . | . | . | 0.5% | 0.0%
O=C(Nc1ccc(S(=O)(=O)N2CCC(c3nc4ccccc4s3)CC2)cc1)c1ccc(F)cc1 | -2.9% | . | -12.1% | . | -2.8% | 19.0%[46.1 µM] | . | -1.1%[46.1 µM]
Cc1ccc(NC(=O)CSc2nccc(=O)[nH]2)c(S(=O)(=O)N2CCOCC2)c1 | -0.1% | -4.2% | 0.0% | -4.0% | 0.2% | -4.0% | 3.0% | 0.8%
CN(C)C(=S)c1ccccc1 | . | -11.9% | -0.1% | -1.1% | . | 25.4% | -1.1% | ?
O=C(Nc1ccccc1N1CCOCC1)c1cccc([N+](=O)[O-])c1 | ? | -13.6% | -12.8% | -16.3% | -1.1% | 0.0% | -4.4% | 6.0%
Fc1ccc(NC(=S)Nc2cccnc2)c(Cl)c1 | . | 23.4% | 24.0% | 3.4% | . | 16.6% | 0.8% | 3.7%[46.1 µM]
CCN(c1ccccc1)S(=O)(=O)c1ccc(Cl)c(NC(=O)CNCc2ccccc2OC)c1 | . | -12.1% | ? | . | . | ? | -0.1% | ?
CCCCN(C)C(=O)c1cc2c(Cl)nc3ccccc3c2s1 | . | 2.2% | -21.7% | -4.9% | . | -18.7%[46.1 µM] | -1.0% | 29.2%[46.1 µM]
COc1ccc(OCC(=O)Nc2cc(-c3nc4ccccc4o3)ccc2Cl)cc1 | -5.3% | . | 52.0%[activator] | . | -0.5% | ? | . | ?
CCOC(=O)C1(Cc2ccc(O)cc2)NC(c2ccccc2F)C2C(=O)N(C)C(=O)C21 (configuration not stated) | 0.1% | 14.1% | -20.7% | 2.1% | 0.8% | ? | -1.1% | -15.9%
CC(C)CNC(=O)c1ccccc1N(Cc1ccccc1)S(C)(=O)=O | . | 0.1% | -6.9% | 8.7% | . | . | -2.4% | .
Cc1ccc(NC(=O)c2cccc(NC(=O)N3CCSc4ncccc43)c2)cc1Cl | -21.0% | . | 22.7% | . | -4.8% | ? | . | .
